Assay outcomes: PubChem BioAssay, National Center for Advancing Translational Sciences (NCATS)
gsp ag: qHTS for Agonist of gsp, the Etiologic Mutation Responsible for Fibrous Dysplasia/McCune-Albright Syndrome: qHTS; Potency, µM (titrated, usually from 76.9 µM), for the others: at the top dose activation (cAMP increase), most hits filed as activators; actives 0.13% (n = 340,000); gsp mutant cells, cAMP HTRF, 30 min; control for the full effect not named in the record; AID 624287, 2012; active = well fitted activation curve with a large enough effect; inconclusive = small, poorly fitted or top-dose-only effect, or another doubt; inactive = no such curve, though single readings can be large or run the other way; cell line not stated here;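 also: phosphodiesterase inhibitor Ro 20-1724 added with compounds to block cAMP breakdown; potency is read from the fitted curve at half-maximal effect; nearly all actives have a fitted effect of over 60% in size; about a fifth of the inactives were tested at one dose only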
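Cells in DMEM/10% FBS with G418 were pretreated with compounds in DMSO plus […] (300 uM stock) for 30 min at 37C. cAMP was measured by HTRF (cAMP-d2 plus anti-cAMP antibody-K) after 30 min at room temperature.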
Sfp PPTase inh: qHTS Assay for Inhibitors of Bacillus subtilis Sfp phosphopantetheinyl transferase (PPTase) | 4'-phosphopantetheinyl transferase ffp (Bacillus subtilis), Q9F4F7 | Biochemical Sfp PPTase activity, qHTS | Potency, µM, inactives show max response, negative = inhibition, hits mostly inhibitors | actives 3.5% (n = 310,000) | AID 1490, 2009; active = well fitted inhibition curve with a large enough effect; inconclusive = small, poorly fitted or top-dose-only effect, or another doubt; inactive = no such curve, though single readings can be large or run the other way;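 also: the enzyme is Sfp with the accession as filed and its product quenches rhodamine fluorescence; potency is read from the fitted curve at half-maximal effect; 0% = enzyme reaction without inhibitor and -100% = no enzyme wells; top concentration of the series not given in the record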
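Compounds were incubated with enzyme (final 15 nM) for 15 min at room temperature before substrate addition started the reaction. Fluorescence at 525 nm excitation, 598 nm emission was recorded immediately and after 30 minutes.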
gsp antagonist: qHTS for Antagonists of gsp, the Etiologic Mutation Responsible for Fibrous Dysplasia/McCune-Albright Syndrome: qHTS; gsp-mutant cells, cAMP HTRF, 30 min; control for the full effect not named in the record; Potency, µM (series often up to 76.9 µM), inactives show at the top dose activity change, negative = inhibition, actives largely listed as inhibitors; actives 0.4% (n = 340,000); active = falling curve of any shape with a large fitted effect; inconclusive = falling curve, mostly with a smaller effect; inactive = flat or rising curve; cell line not stated here;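 also: intracellular cAMP measured with PDE inhibitor Ro 20-1724 present during compound exposure; potency is read from the fitted curve at half-maximal effect; % is scaled to controls: 0 for no effect and ±100 for the full control effect; nearly all actives have a fitted effect of over 65% in size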
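Measurement of cellular cAMP by homogeneous time-resolved fluorescence following a 30 min compound exposure at 37C. The PDE inhibitor […] was present throughout; the assay buffer was DPBS with 0.05% BSA and 0.005% Tween 20.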
Menin-MLL FL inh: qHTS Assay for Inhibitors Targeting the Menin-MLL Interaction in MLL Related Leukemias: Competition With Fluorescein Labeled MLL-derived Peptide; Fluorescence polarization, fluorescein-MLL peptide displacement from menin; FP activity change, % at 61.4 µM; 290,000 tested, under 10 active; AID 1766, 2009; inconclusive = falling polarisation curve, or a change in total fluorescence; inactive = total fluorescence flat and polarisation flat or rising; no compound was filed as active; the % refers to the polarisation; negative = inhibition;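 also: % of control where 0% means no effect; inhibitors lower the polarisation; unlabelled MLL peptide was the positive control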
TRPV1 PAM: HTS Assay for Compounds that Act as Potentiators of the Vanilloid Receptor 1; potentiation, % at 8.33 µM; TRPV1-expressing cells, Fluo-8 calcium influx, capsaicin EC20 potentiation; host cell line not named in the record; control for the full effect not named in the record; actives 0.02% (n = 320,000); Transient receptor potential cation channel subfamily V member 1 (Homo sapiens), Q8NER1; active means potentiation above 80%; inconclusive means 30% to 80%; inactive means below 30%; also: 0% is about no effect
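Cells expressing TRPV1 were dye-loaded with Fluo-8 and read kinetically: 10 s baseline, 3 min after compound (agonist portion), then 2 min after EC20 capsaicin (allosteric enhancer portion). Calcium-bound dye fluorescence at 480/520 nm.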
D2 potentiator: Beta-Arrestin HTS for Positive Allosteric Modulators of the Human D2 Dopamine Receptor: Potentiators. actives 0.23% (n = 360,000). potentiation, % (concentration not given with the values). D(2) dopamine receptor (Homo sapiens), P14416. DiscoveRx D2 beta-arrestin cells, luminescence, 90 min; 100% = 57 uM dopamine signal. AID 624464, 2012; active = potentiation of 50% or more; inconclusive = 30% to 50%; inactive = 30% or less;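 also: compound concentration not given in the record; tested on top of an EC20 dose of dopamine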
Target sequence (P14416 whole entry, looked up): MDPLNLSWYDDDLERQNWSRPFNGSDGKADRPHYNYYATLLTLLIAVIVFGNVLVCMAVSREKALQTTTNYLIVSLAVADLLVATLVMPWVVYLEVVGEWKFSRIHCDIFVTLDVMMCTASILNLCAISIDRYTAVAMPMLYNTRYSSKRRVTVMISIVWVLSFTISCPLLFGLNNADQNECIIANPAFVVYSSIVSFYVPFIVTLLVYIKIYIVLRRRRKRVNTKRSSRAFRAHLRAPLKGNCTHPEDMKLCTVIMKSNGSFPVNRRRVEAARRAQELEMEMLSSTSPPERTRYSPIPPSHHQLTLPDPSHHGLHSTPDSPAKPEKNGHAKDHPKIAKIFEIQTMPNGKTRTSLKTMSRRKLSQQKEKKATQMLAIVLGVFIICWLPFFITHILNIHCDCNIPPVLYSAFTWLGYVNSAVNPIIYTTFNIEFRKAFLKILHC
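PathHunter beta-arrestin assay in DiscoveRx D2 cells. Compounds were added with an EC20 of dopamine (50 nM final) for 90 min at 37 deg C. Luminescence was read 1 h after detection reagent, with 57 uM dopamine as the EC100 control.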
ClpP mod: qHTS Assay for Activators of ClpP; ATP-dependent Clp protease proteolytic subunit (Bacillus subtilis (strain 168)), P80244; purified B. subtilis ClpP, FRET peptide cleavage, 20 min; Potency, µM (titrated, usually from 57.5 µM), for the others: at the top dose activity change, negative = active; actives 1.9% (n = 340,000); AID 651965, 2013; active = well fitted falling curve with a large enough effect; inconclusive = small, poorly fitted or top-dose-only effect; inactive = no such curve, though single readings can be large or run the other way; also: potency is read from the fitted curve at half-maximal effect; the source files actives as falling curves though it sought activators and does not explain the sign; nearly all actives have a fitted effect of over 65% in size; many hits overshoot -100%
Target sequence (P80244 whole entry, looked up): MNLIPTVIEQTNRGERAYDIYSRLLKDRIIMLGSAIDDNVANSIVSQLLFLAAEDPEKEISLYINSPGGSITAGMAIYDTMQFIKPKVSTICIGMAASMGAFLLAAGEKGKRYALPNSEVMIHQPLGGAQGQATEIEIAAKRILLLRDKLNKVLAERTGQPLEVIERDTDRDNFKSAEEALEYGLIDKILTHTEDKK
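Buffer: 100 mM Tris/HCl pH8, 100 mM KCl, 0.05% low protease BSA, 2.5% glycerol, 0.01% Tween-20. ClpP 10 microg/mL final; 20 min RT; delta FRET normalized to ADEP and DMSO controls.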
Active calls of the source: *; u = inconclusive; x = no result given; [ ] = another dose, or the depositor's remark.

The line under a structure holds: gsp ag, Sfp PPTase inh, gsp antagonist, Menin-MLL FL inh, TRPV1 PAM, D2 potentiator, ClpP mod
Cc1ccc(N(Cc2ccco2)C(=O)c2cccc(S(=O)(=O)N(C)C)c2)cc1
 : -3%, 19%, -5%, 3.4, -4, 8, 0.8%
O=c1[nH]cnc2c1sc1nc3c(c(-c4ccc(Cl)cc4)c12)CCC3
 : u, -6%, -6%, 0.5, -2, 0, u
COc1ccc(C)cc1-n1nnnc1SCc1nc2ccccc2c(=O)[nH]1
 : 5%[15.4 µM], u, -13%, 1.5, 0, 1, -3.6%
CCOC(=O)CCCSc1nc2sc3c(c2c(=O)[nH]1)CCC3
 : 8%, 11%, 2%, -1.4, 7, -2, -0.3%
CCCCNC(=O)NNC(=O)c1ccoc1C
 : -1%, -3%, 5%, -1.1, 9, -4, 2.2%
CCNC(=O)CN(CCc1ccccc1)S(=O)(=O)c1ccc(OC)cc1
 : -3%, 11%, -7%, 2.8, 5, -2, -0.3%
CN(C)S(=O)(=O)N1CCN(CC(=O)Nc2ccc(Br)cc2)CC1
 : -6%, 8%, 6%, -0.2, -2, -5, -0.2%
CCN(C(=O)Cc1cccs1)c1nnc(-c2cc(OC)c(OC)c(OC)c2)s1
 : 16%, 6%, 17%, 6.6, -9, -9, 22µM*
COc1c(Cl)cnn(-c2ccccc2)c1=O
 : 11%, 19%, -11%, 5.1, 2, -4, -1.8%
Cc1ccc(N2C(=O)C3C4C=CC(CNC(=S)Nc5ccc(F)cc5)(O4)C3C2=O)cc1 (stereo not given)
 : 31%, 14µM*, 5%, 3.1, 2, -15, -1.3%
CN(C)S(=O)(=O)c1cc(NC(=O)c2cc(=O)c3ccccc3o2)ccc1Cl
 : -3%, 32µM*, -16%, 0.1, -17, -4, x
Cc1ccn(C(=O)c2ccc(NC(=O)C3CCCCC3)cc2)n1
 : 4%, 6%, -1%, -1.9, 12, -5, -21%
COc1ccc(NC(C)=O)cc1S(=O)(=O)Nc1ccccc1C(=O)NCCc1ccccc1
 : 0%[15.4 µM], 11%, -8%, x, 20, -4, x
CN(c1ccc(Br)cc1)S(=O)(=O)c1ccc2[nH]cc(C(=O)NCCN3CCOCC3)c(=O)c2c1
 : 22%, -2%, u, x, -2, -9, -18%
COc1cc(NC(=O)c2cc(C)no2)cc(OC)c1OC
 : 0%[15.4 µM], 8%, 2%, 0.3, 9, -8, x
COc1ccc(C2=NS(=O)(=O)N(C)C(C(=O)NC3CCCCC3)=C2)cc1
 : 2%, 9%, -4%, -3.6, -11, -9, -5.6%
O=C(CN1C(=O)NC2(CCSC2)C1=O)N1CCN(c2ccc(F)cc2)CC1 (stereo not given)
 : -2%, 8%, -8%, 1.0, 5, -3, -0.6%
O=C(COC(=O)c1cc([N+](=O)[O-])ccc1N1CCOCC1)Nc1ccccc1OC(F)F
 : -1%, x, -17%, x, -18, -25, -5.3%
O=C(CSc1nnc(C2CC2)n1CC1CCCO1)Nc1ccc(Cl)cc1 (stereo not given)
 : 1%[15.4 µM], 12%, 8%, 1.8, 6, -9, x
COc1ccc(/C=C2\Oc3cc(OCC(=O)N4CC(O)C[C@H]4C(=O)O)ccc3C2=O)c(OC)c1OC (stereo not given in full)
 : x, 12%, -2%, 8.0, -8, -33, -5.8%
Nc1cc(OC(=O)c2cccs2)nn1S(=O)(=O)c1ccccc1
 : 11%, 15%, -11%, -0.9, -2, -5, 0.7%
NC(=O)CC1SC(N)=NC1=O (stereo not given)
 : u, 22%, 11%, 0.5, 0, -4, 0.7%
CCN1CCN(C2=C(NS(=O)(=O)c3ccc(Br)cc3)C(=O)c3ccccc3C2=O)CC1
 : -13%, -13%, -8%, x, 0, -8, 1.4%
COc1ccc(C(=O)NCC(=O)NCc2ccncc2)cc1
 : 0%[15.4 µM], x, 6%, x, x, -12, 0.3%
Cc1cc(C)nc(SC(C)CNS(=O)(=O)c2ccccc2)n1 (stereo not given)
 : 3%[15.4 µM], 9%, 14%, -1.6, 4, -8, x
CCn1c(=O)c(CCC(=O)NCCN2CCOCC2)c(C)c2c(C)nn(-c3cccc(C)c3)c21
 : u, -7%, -1%, x, -29, -6, -21%
COc1cccc(C(=O)Nc2ccc(N3CCN(S(C)(=O)=O)CC3)cc2)c1
 : 1%, 27%, 4%, 1.4, 23, 0, -0.6%
Cc1ccc(N2C(=O)c3ccccc3C2Nc2ccc(S(=O)(=O)N3CCOCC3)cc2)nc1 (stereo not given)
 : -39%[inhibitor], 9%, -5%, 3.0, -20, -2, -0.1%
COc1ccc(NC(=O)CSc2nc3c(c(=O)n2-c2ccccc2OC)SCC3)cc1
 : -32%[inhibitor], 20%, 5%, 3.8, 20, -10, -1.2%
CCOc1ccc(NC(=O)NCc2ccco2)cc1
 : 27%, 17%, 5%, -0.6, -7, -2, 0.1%
O=S(=O)(Cc1ccccc1)Nc1ccc(S(=O)(=O)NCC2CCCO2)cc1 (stereo not given)
 : -11%, 19%, 2%, 2.5, 2, -6, -0.3%
O=C(CSCc1ccc(Cl)c(Cl)c1)Nc1c[nH]c(=O)[nH]c1=O
 : -22%, -4%, 6%, 5.5, -2, -1, 13µM*
C[C@@H]1CN([C@@H](C)CO)C(=O)CCCn2nncc2CO[C@@H]1CN(C)S(=O)(=O)c1ccccc1C#N
 : -9%, x, x, x, x, 3, -0.6%
O=C(COc1ccc(Br)cc1)Nc1cc(S(=O)(=O)N2CCCCC2)ccc1N1CCCCC1
 : 16%[15.4 µM], 15%, 2%, 2.8, 14, 1, 0.1%
Cc1c(CCC(=O)O)c(=O)oc2cc3occ(-c4ccc(F)cc4)c3cc12
 : 2%, -11%, -39%, -0.2, -7, 8, -14%
Cc1ccccc1OCC(O)CN1CCN(CCN2C(=O)c3cccc4cccc(c34)C2=O)CC1 (stereo not given)
 : 19%, 12%, -21%, -1.6, -3, -42, -11%
CC(NC(=S)NNS(=O)(=O)c1ccc(C(C)(C)C)cc1)c1ccccc1 (stereo not given)
 : 8%, 9%, -10%, -2.5, -1, -14, 0.7%
CCCN(CCC)C(=O)CC(c1ccccc1)c1ccco1 (stereo not given)
 : 14%[15.4 µM], 45µM*, 4%, 21, 19, -10, 2.4%
COc1cc(C(=O)NCc2cn3cccc(C)c3n2)cc(OC)c1OC
 : 25%, 14%, 13%, -2.3, -3, -5, -0.4%
Cc1ccc(Oc2nn[nH]n2)cc1
 : -31%[inhibitor], 16%, 10%, 0.4, 2, -2, -1.8%
COC(=O)c1ccc(COc2ccc(-c3nnn(CC(=O)NC(C)(C)C)n3)cc2)cc1
 : -17%, 11%, -8%, 1.1, 8, -6, 1.7%
Cc1ccccc1NC(=O)N1CCN(S(=O)(=O)c2ccccc2)CC1
 : 5%[15.4 µM], -8%, 3%, -5.6, 12, 1, x
COc1ccc(NC(=O)CCS(=O)(=O)c2cc3c(cc2C)NC(=O)CO3)cc1
 : -19%, 17%, 1%, 0.2, 5, -3, -5.1%
COC(=O)COc1ccc(-c2nccc(-c3ccc(Br)cc3)n2)cc1
 : 24%, 17%, -7%, 0.3, -12, -7, x
COc1ccc(S(=O)(=O)N2CCN(c3cnccn3)CC2)cc1
 : 3%[15.4 µM], x, 8%, x, x, -8, -4.1%
COc1cccc(NC(=O)COC(=O)COc2ccccc2[N+](=O)[O-])c1
 : 20%, 5%, 4%, 1.6, -5, -5, 10%
C[C@@H]1CN([C@@H](C)CO)C(=O)CCCn2nncc2CO[C@H]1CN(C)C(=O)CCC(F)(F)F
 : -7%, x, x, x, x, -2, 0.2%
CSc1cccc(NC(=O)c2cc(S(=O)(=O)N3CCCC3)cn2C)c1
 : -2%, 1%, -24%, -1.2, -10, -4, -0.4%
N/C(=N\OC(=O)CCC1CCCC1)c1ccc(Br)cc1
 : -9%, 14%, -8%, x, -2, 13, -0.2%
CCOC(=O)c1cc(NC(=O)c2cnccn2)cc(C(=O)OCC)c1
 : -15%, 1%, 12%, 0.4, 5, -4, 0.7%
Oc1oc(-c2ccccc2Br)nc1C=Nc1ccc(Br)cn1
 : -29%, u, 14%, 26, 18, -13, x
O=C(Cc1ccc(S(=O)(=O)N2CCOCC2)s1)NCCOc1ccccc1F
 : 6%[15.4 µM], x, 1%, x, 8, -5, x
O=C(c1ccccc1Oc1ccccc1)N1CCN(c2ccccc2)CC1
 : -36%[inhibitor], -24%, -8%, 3.1, -27, -1, -0.3%
O=C(Nc1ccnn1C1CCN(Cc2cccc(F)c2F)CC1)C1CCCC1
 : -8%, 15%, -2%, x, -12, -21, 0.7%
OCCNCc1cc(Br)ccc1OCc1ccccc1Cl
 : 14%, u, 29%, -0.1, -3, -26, u
Cc1cc(NC(=O)c2cccs2)n(-c2ccccc2)n1
 : -53%[inhibitor], 13%, 6%, -1.0, 6, 0, -5.4%
O=C(COC(=O)c1cc(Cl)ccc1O)NCC1CCCO1 (stereo not given)
 : -16%[15.4 µM], x, 10%, x, -18, -3, x
CS(=O)(=O)Nc1ccc2c(c1)ncn2CCc1ccccc1
 : -1%, 10%, 5%, -0.4, 1, -7, -6.3%
CSc1ncccc1C(=O)Nc1nccs1
 : 26%[15.4 µM], 11%, 1%, 0.8, 21, -2, x
COc1ccc(C(=O)NC(CO)c2nnc(SCc3ccc(Cl)c(Cl)c3)n2C)cc1 (stereo not given)
 : -40%, 10%, -2%, -0.1, -16, -11, -23%
